Screening results: PubChem, National Center for Advancing Translational Sciences (NCATS)
D2 PAM: positive allosteric modulators of human D2 dopamine receptor. P14416. potentiation, % (test concentration not listed). DiscoveRx D2 beta-arrestin cells, luminescence, 90 min; 100% = 57 uM dopamine signal. AID 624464. hit rate 0.23% among 360,000; active = potentiation of 50% or more; inconclusive = 30% to 50%; inactive = 30% or less;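 further: compound concentration not given in the record; tested on top of an EC20 dose of dopamine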
Target sequence (P14416 whole entry, looked up): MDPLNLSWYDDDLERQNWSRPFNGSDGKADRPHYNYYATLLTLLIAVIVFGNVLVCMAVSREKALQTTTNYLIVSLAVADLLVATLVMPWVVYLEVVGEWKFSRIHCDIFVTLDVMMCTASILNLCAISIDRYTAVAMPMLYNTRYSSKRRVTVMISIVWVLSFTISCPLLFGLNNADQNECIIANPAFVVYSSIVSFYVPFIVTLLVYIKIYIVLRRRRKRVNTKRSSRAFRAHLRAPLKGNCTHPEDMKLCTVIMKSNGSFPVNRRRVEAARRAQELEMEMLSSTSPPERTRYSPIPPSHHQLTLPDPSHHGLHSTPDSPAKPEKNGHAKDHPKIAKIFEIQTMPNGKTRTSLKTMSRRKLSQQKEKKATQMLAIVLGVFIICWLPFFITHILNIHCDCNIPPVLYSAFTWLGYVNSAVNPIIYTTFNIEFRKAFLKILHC
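PathHunter beta-arrestin assay in DiscoveRx D2 cells. Compounds were added with an EC20 of dopamine (50 nM final) for 90 min at 37 deg C. Luminescence was read 1 h after detection reagent, with 57 uM dopamine as the EC100 control.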
CtBP-E1A inh: blocks the CtBP interaction with E1A | AlphaScreen GST-E1A/His-CtBP binding, 1536-well; hits give low values; control for the full effect not named in the record | activity change, % (concentration not given with the values) | hit rate 0.49% among 340,000; in the data active means activity change below about -65%; inconclusive means about -30% to -65%; inactive means above about -30%; further: on the % scale 0 is the no-effect control and ±100 the full control effect
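Homogeneous bead-based format: GST-tagged E1A captured on glutathione donor beads, His-tagged CtBP on nickel acceptor beads; compounds precede bead addition by 2 h at 37 °C.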
TRPML1 agonist: activates the human TRPML1 channel; Q9GZU1; TRPML1-expressing cells, Ca2+ dye fluorescence, FDSS; host cell line not named in the record; reference of the full effect not given here; activation, % (no concentration beside the values); hit rate 0.12% among 410,000; AID 624414; in the data active = activation above about 50%; inconclusive = about 30% to 50%; inactive = below about 30%; further: 0% is about no effect; the text of the record puts the active cut at 80%
Target sequence (Q9GZU1 whole entry, looked up): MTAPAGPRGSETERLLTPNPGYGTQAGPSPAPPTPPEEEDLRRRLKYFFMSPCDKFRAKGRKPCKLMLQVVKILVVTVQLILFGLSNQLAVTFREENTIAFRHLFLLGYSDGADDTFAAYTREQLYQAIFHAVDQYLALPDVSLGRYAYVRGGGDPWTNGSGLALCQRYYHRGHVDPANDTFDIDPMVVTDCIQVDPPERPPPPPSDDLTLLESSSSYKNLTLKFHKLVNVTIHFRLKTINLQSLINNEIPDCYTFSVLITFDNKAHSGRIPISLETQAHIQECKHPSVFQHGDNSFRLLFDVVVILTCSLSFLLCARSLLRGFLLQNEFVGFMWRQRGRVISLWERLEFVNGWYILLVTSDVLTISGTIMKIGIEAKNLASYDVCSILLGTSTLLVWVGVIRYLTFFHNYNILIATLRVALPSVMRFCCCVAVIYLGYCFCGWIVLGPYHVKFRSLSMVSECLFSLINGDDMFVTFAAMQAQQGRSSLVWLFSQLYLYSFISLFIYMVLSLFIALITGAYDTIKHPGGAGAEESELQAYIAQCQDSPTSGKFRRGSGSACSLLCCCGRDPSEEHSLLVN
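Tetracycline-induced TRPML1-DL cells are seeded and incubated overnight before loading with a no-wash Ca2+ dye and quencher. Agonist activity is taken from the 110 s fluorescence read following compound pin-transfer on an FDSS, before EC80 54-4 challenge.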
Six1-Eya2 blk: Six1/Eya2 interaction inhibition; AlphaScreen GST-Six1/His-Eya2 binding, biochemical; hits give low values; control for the full effect not named in the record; hit rate 0.56% among 360,000; Q15475+O00167; activity change, % (test concentration not listed); AID 651725; in the data active = activity change below about -65%; inconclusive = about -30% to -65%; inactive = above about -30%; further: on the % scale 0 is the no-effect control and ±100 the full control effect; compound concentration not given in the record
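Homogeneous AlphaScreen proximity assay pairing GST-Six1 with His-tagged Eya2 (added as 5X mix: 250 nM and 500 nM) in 50 mM Tris pH 8.0, 300 mM NaCl, 1 mM TCEP. Glutathione donor and nickel acceptor beads; 1 h, 37 °C, dark.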
PINK1 expr mod: PINK1 expression modulation; Potency, µM (titrated, usually from 76.6 µM), without a hit: top-dose activation (PINK1 increase), hits mostly activators; PINK1 immunofluorescence, high-content cytometry, 24 h; hit rate 0.2% among 410,000; AID 624263; active = well fitted activation curve with a large enough effect; inconclusive = small, poorly fitted or top-dose-only effect; inactive = flat fitted curve, though single readings scatter; cell line not stated here;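 further: potency means the concentration at half of the fitted maximal effect; % of control where 0% means no effect; nearly all actives have a fitted effect of over 65% in size; a mitochondrial uncoupler was the plate control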
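Decision-based qHTS: stable cells, 24 h exposure to five compound concentrations, CCCP as control. Fixed cells stained for PINK1 plus nuclear, mitochondrial and cell markers, cytometer read.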
D2 ag: human D2 receptor agonism in beta-arrestin assay. hit rate 0.084% among 360,000. activation, % (test concentration not listed). DiscoveRx PathHunter D2 beta-arrestin, luminescence, 90 min; 100% = 57 uM dopamine signal; in the data active = activation above about 40%; inconclusive = about 15% to 40%; inactive = below about 15%; further: compound concentration not given in the record; the text of the record calls up to 30% inactive
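DiscoveRx PathHunter D2 beta-arrestin cells (2,100/well) attached overnight, then compound-stimulated 90 min at 37 C in HBSS/10 mM HEPES/0.1% Tween-20 buffer; beta-galactosidase complementation read by luminescence after 1 h at ambient temperature. Dopamine 57 uM final (EC100) as control.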
The depositor's hits bear a star; ? = inconclusive; / = no result given; & = joins results of further samples; [ ] = remark or other dose.

SMILES	D2 PAM	CtBP-E1A inh	TRPML1 agonist	Six1-Eya2 blk	PINK1 expr mod	D2 ag
CC(C)Oc1ccc(C(CC(=O)O)NC(=O)C(Sc2ccccc2)c2ccccc2)cc1 (configuration not stated)	-2	-8	0.9	5	0.7%	-5.6
Cc1ccc(C(=O)NNC(=O)C(C)Oc2ccc3ccccc3c2)o1 (configuration not stated)	-15	1	0.4	5	1.1%	-4.8
Cc1nc(SCC(=O)NC2CCS(=O)(=O)C2)c2c3c(sc2n1)CCC3 (configuration not stated)	-15	2	-0.5	-7	1.4%	-1.7
N#Cc1ccc(CN2CCN(C(=O)CNC(=O)Cc3cccc4ccccc34)CC2)cc1	-3	3	0.3	2	-2.8%	2.1
Cc1cc(OC(C(=O)O)c2ccccc2)c2c(C)c(Cc3ccccc3)c(=O)oc2c1 (configuration not stated)	11	11	0.0	12	0.1%	-1.1
CN(NS(=O)(=O)c1ccccc1)c1nc2ccccc2nc1C(F)(F)F	-9	-2	0.2	-5	-0.7%	-5.4
Fc1ccccc1/C=N/n1c(C2CCCCC2)n[nH]c1=S	-8	9	/	-4	5.4%	5.0
COC(=O)C1=C(C)Nc2ncnn2C1c1cccnc1 (configuration not stated)	-10	2	0.3	4	-1.8%	-0.9
CNC(=S)NC(CC(=O)OC)c1ccc2c(c1)OCO2 (configuration not stated)	-2	-5	-0.2	4	2.2%	-4.5
O=C(Cn1c2ccccc2c2nc3n(c(=O)c21)CCS3)Nc1ccccc1C(F)(F)F	-2	14	1.9	7	-0.8%	-0.7
CCOC(=O)c1cc(-c2ccccc2)n(CCC(=O)NC(C)CC)c1C (configuration not stated)	0	-9	0.8	-6	-3.1%[38.3 µM]	-1.2
CC(Sc1ncccn1)C(=O)Nc1ccc2c(c1)OCCO2 (configuration not stated)	-36	-3	0.5	9	-0.4%	-2.7
C[C@H](CO)N1C[C@H](C)[C@@H](CN(C)S(=O)(=O)c2cccs2)Oc2ccc(NS(=O)(=O)c3ccc(F)cc3)cc2C1=O	-2	4	0.0	0	0.2%	-6.4
O=C(CSc1ccc(F)cc1)Nc1ccccc1N1CCOCC1	2	/	0.8	0	-0.6%	6.9
CC(CN1CCC(n2nccc2NC(=O)CCCc2ccccc2)CC1)c1ccccc1 (configuration not stated)	-29	-1	0.9	-6	0.3%	-3.7
CCC(Oc1ccc2c(=O)c(-c3ccccc3OC)coc2c1)C(=O)OCc1ccccc1 (configuration not stated)	-1	9	0.5	0	-0.1%	1.0
C/C(CC(=O)Nc1ccc(Cl)cc1Cl)=N\NC(=O)c1ccncc1	-22	/	-0.4	-8	0.5%	-5.2
O=C(Cc1ccc(F)cc1)N/N=C/c1ccccn1	-2	-10	0.4	-4	1.4%	-2.6
COc1cc(C)c(NC(=S)Nc2cccc(Cl)c2C)cc1OC	-1	-7	0.0	2	0.1%	1.1
Cc1noc(C)c1S(=O)(=O)N(CC(=O)N1CCn2c1nc1ccccc12)c1ccc(C(C)C)cc1	-8	-2	1.3	-3	-0.7%	-3.7
O=c1[nH]cnc2c1ncn2Cc1ccc([N+](=O)[O-])cc1	-16	/	-0.4	5	0.0%	2.0
CC(=O)N1CCOc2ccc(S(=O)(=O)NCC3CCC(C(=O)Nc4ccc(C)cn4)CC3)cc21 (configuration not stated)	2	-29	-1.4	-12	-0.8%	0.5
CS(=O)(=O)Nc1cccc(-c2cc(NC=O)c3ncc(-c4ccc(F)c(Cl)c4)n3c2)c1	-5	-23	0.0	-28	-0.3%	2.1
CC(=O)c1ccc(NS(=O)(=O)c2ccc(N/C=C/C(=O)c3ccc(F)cc3)cc2)cc1	-1	-20	0.4	-14	7.2%	5.7
Cc1cccc(NC(=O)c2cc[n+]([O-])cc2)c1C	-5	8	0.2	9	0.6%	-0.5
Cc1nc(SCC(=O)Nc2c(C)n(C)n(-c3ccccc3)c2=O)c2cnn(-c3ccccc3)c2n1	-6	/	-0.2	-11	-0.2%	-13
CC(C)[C@H](NC(=O)C1CCN(S(=O)(=O)c2ccc(F)cc2)CC1)C(=O)NCc1ccncc1	-1	2	-0.8	-1	2.1%	-0.5
NC(=S)N1N=C(c2ccccc2)CC1=O	-19	-22	0.0	12	-4.4%	-4.5
CCOC(=O)CCC(=O)NNC(=O)c1ccc(NC(=O)c2ccccc2)cc1	-7	/	-0.2	-1	0.0%	0.0
CCOC(=O)c1c(-c2ccc(C)o2)csc1NC(=O)CSc1ncn[nH]1	-1	5	2.5	-6	22%[38.3 µM]	1.2
CCn1c(C(=O)OC)cc2c1ccn2-c1ccc(F)cc1	5	-27	-0.4	-22	1.1%	4.7
Cc1ccc(S(=O)(=O)NCCCNC(=O)c2ccccc2)cc1	-13	0	-0.1	0	4.8%[38.3 µM]	-0.1
COc1cc2c(cc1NS(=O)(=O)N1CCCCC1)oc1ccccc12	-1	-6	-0.3	-2	13%[38.3 µM]	-0.9
COCCn1c(SC)nnc1-c1c[nH]c2ccccc12	-5	7	0.2	0	-0.2%	-4.8
O=C(Nc1cc(-c2nn(CC(=O)N3CCCCC3)c(=O)c3ccccc23)ccc1N1CCOCC1)c1ccc(Cl)cc1	9	-2	0.3	4	-1.4%	2.8
O=C(Cc1cccs1)Nc1ccccn1	-8	1	0.2	1	-1.2%	0.5
COc1ccc(NC(=O)CSc2nc(N)cc(N)n2)cc1S(=O)(=O)N1CCCCC1	0	8	-0.4	-3	0.0%	4.3
O=C(CSc1ccc(F)cc1)Nc1nnc(-c2ccco2)o1	0	?	2.4	-25	2.1%	-1.1
CSc1oc(-c2ccco2)nc1S(=O)(=O)c1ccc(Br)cc1	-2	-5	2.1	-2	2.6%	1.2
O=C(Nc1cccc(C(F)(F)F)c1)C1Cc2c(-c3ccc(Cl)cc3)ccnc2O1 (configuration not stated)	-5	6	0.7	3	?	11
COc1ccc(N2CC(C(=O)NCc3ccco3)CC2=O)cc1 (configuration not stated)	0	-2	-0.7	2	0.0%	-2.7
Cc1cc(C)n2nc(N)c(N=Nc3ccc4c(c3)OCO4)c2n1	-16	16	0.2	-19	?	-3.8
CCOC(=O)CC(=O)c1[nH]c(C)c(C(=O)OCC)c1C	-3	4	-0.1	-2	2.2%	-7.2
Cn1nc(C(=O)Nc2nc3ccccc3[nH]2)c2ccccc2c1=O	-11	3	3.7	?	0.4%	-5.8
CCN(CC)S(=O)(=O)c1cc(NC(=O)CCNC(=O)c2ccco2)ccc1C	-3	-4	-0.1	3	4.2%	-1.0
Cc1c(-n2c(=O)n(Cc3ccccc3)c(=O)c3[nH]cnc32)cccc1S(C)=O (configuration not stated)	-11	6	-1.3	3	0.8%	-1.7
O=C(C1=C[C@H](c2coc3ccccc3c2=O)C[C@H](OCCCCO)O1)N1CCN(Cc2ccc3c(c2)OCO3)CC1	-14	-1	-0.2	-6	-1.0%	-0.4
CCN1Cc2c(cc(OC)c(OC)c2OC)-c2ccccc2S1(=O)=O	/	1	-0.9	0	0.0%	-2.1
COc1ccc(-c2nc(CS(=O)CC(=O)NCCN3CCCCC3C)c(C)o2)cc1OC (configuration not stated)	-20	/	0.3	3	0.6%	0.3
CN(CC(=O)NC1CCN(Cc2ccccc2)CC1)S(=O)(=O)c1ccc(Cl)s1	-4	1	0.4	26	0.0%	-6.0
CN1CCN(C(=O)c2cc3sc4ccccc4c3s2)CC1	-14	1	0.6	-2	3.6%	-1.6
COC(=O)CN1C2(C#N)CCCCC2CC2CCCCC21C#N (configuration not stated)	-35	0	0.2	-6	3.2%	-7.8
COc1ccc(NS(=O)(=O)CC(C)C)c(OC)c1	4	-1	-0.1	10	1.5%	-3.4
C=CCNC(=S)N1CCN(CCN=CC2=C(O)CC(c3cccs3)CC2=O)CC1 (configuration not stated)	1	-2	-0.5	0	4.6%[38.3 µM]	0.9
Cc1cc(N2CC(C(=O)NCc3cccs3)CC2=O)ccc1C(C)C (configuration not stated)	-10	2	0.7	0	0.8%	-2.1
CC(C)CNC(=O)c1cccc(NC(=O)c2ccc(Cl)c([N+](=O)[O-])c2)c1	7	-3	1.1	0	-3.8%	1.5
CCOC(=O)CC1=NS(=O)(=O)c2ccccc2N1	1	-1	0.6	2	-0.4%	-2.9
CCN(C(=O)CSc1nc2ccccc2n1CC)C1CCS(=O)(=O)C1 (configuration not stated)	-22	-1	-0.5	4	0.7%	-3.7
COc1ccc(CNC(=O)CSc2nc(SC)ns2)cc1	-4	-3	2.6	-3	2.2%	-2.7
CN(C#N)c1nc(Cl)nc(Nc2cccc(Cl)c2)n1	-3	?	-0.6	?	-2.3%	-4.0
Remaining list, next part.
SMILES	D2 PAM	CtBP-E1A inh	TRPML1 agonist	Six1-Eya2 blk	PINK1 expr mod	D2 ag
O=C(NCC1CCCN(Cc2cccc(F)c2)C1)c1cccc2ccccc12 (configuration not stated)	-5	-11	1.1	3	-1.4%	1.3
O=C(CCC(=O)NC1CC1)Nc1nnc(C2CCCCC2)s1	14	7	0.7	-2	-1.3%	-3.6
COc1ccc(CNS(=O)(=O)c2ccc(-n3cnnn3)c(C)c2)cc1	-4	7	-0.9	-2	3.9%	3.0
Cc1cccc(C)c1NC(=O)C(=O)NCc1ccccn1	-5	8	-0.1	7	2.3%	-1.4
O=C1c2cc(N3CCCC3)c([N+](=O)[O-])cc2C(=O)N1c1ccccc1	8	-21	0.5	2	1.9%	4.5
Cc1ccc(NC(=O)CCC(=O)NNC(=S)Nc2ccc(F)cc2F)cc1C	-4	3	-0.4	1	0.5%	-6.0
CCOc1ccc(CCNC(=O)C2CCN(C(=O)N(C)C)CC2)cc1OCC	15	7	0.5	7	/	-3.1
CCN(C(=O)COC(=O)/C=C/c1ccccc1)C1CCCCC1	-7	22	1.2	14	5.3%	1.0
c1ccc(-c2onc(-c3ccco3)c2-c2ccc3[nH]ccc3c2)cc1	-8	-6	9.0&0.4	-4	6.6%	-1.5
COc1nc(OC)nc(N2CCC(C(=O)NCc3cccs3)CC2)n1	-5	3	0.4	2	0.5%	-3.0
COc1ccccc1NC(=O)c1ccccc1SCC(=O)N1CCCC1	-3	3	-0.6	1	1.2%	2.5
O=C(COC(=O)c1cnccn1)Nc1ccc(Cl)cn1	3	-11	2.4	7	0.0%	-0.7

3 of the compounds above, bar-delimited.
SMILES | D2 PAM | CtBP-E1A inh | TRPML1 agonist | Six1-Eya2 blk | PINK1 expr mod | D2 ag
Cc1nc(SCC(=O)NC2CCS(=O)(=O)C2)c2c3c(sc2n1)CCC3 (configuration not stated) | -15 | 2 | -0.5 | -7 | 1.4% | -1.7
N#Cc1ccc(CN2CCN(C(=O)CNC(=O)Cc3cccc4ccccc34)CC2)cc1 | -3 | 3 | 0.3 | 2 | -2.8% | 2.1
Cc1cc(OC(C(=O)O)c2ccccc2)c2c(C)c(Cc3ccccc3)c(=O)oc2c1 (configuration not stated) | 11 | 11 | 0.0 | 12 | 0.1% | -1.1
